Screening results as filed in PubChem BioAssay.
HPGD inh: blocks human HPGD enzyme activity; P15428; purified HPGD, NADH fluorescence kinetic, PGE2 substrate; Potency, µM, inactives show at the highest dose activity change, negative = inhibition, actives largely listed as inhibitors; 150,000 compounds, 4.3% hits; AID 894; active = well fitted inhibition curve with a large enough effect (not every such curve was filed as active); inconclusive = small, poorly fitted or top-dose-only effect, or another doubt; inactive = no such curve, though single readings can be large or run the other way;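 note: top concentration of the series not given in the record; plate controls included wells without enzyme; inactives centre near -10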
Target sequence (P15428 whole entry, looked up): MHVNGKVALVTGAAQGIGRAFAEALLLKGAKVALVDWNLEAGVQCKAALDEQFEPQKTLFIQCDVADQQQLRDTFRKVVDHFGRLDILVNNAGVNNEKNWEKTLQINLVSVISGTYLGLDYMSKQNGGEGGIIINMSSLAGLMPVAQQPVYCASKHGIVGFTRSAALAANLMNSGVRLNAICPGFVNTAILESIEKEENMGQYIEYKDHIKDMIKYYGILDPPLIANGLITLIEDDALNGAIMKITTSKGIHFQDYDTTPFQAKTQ
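20 nM HPGD preincubated 15 min at room temperature with compound in 50 mM Tris-HCl pH 8, 0.01% Tween 20. Started with 1 mM NAD+ and 30 uM prostaglandin E2; NADH fluorescence (360/450 nm) read 5 times over 30-s intervals, last minus first.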
Starred values were filed as active, the others as inactive; ? = inconclusive; & = joins results of further samples. % is set by controls: 0 for no effect and ±100 for the full control effect; potency is the fitted concentration of half-maximal effect. An excerpt; the hit share may differ from the screen's.

HPGD inh | Structure
-7% | O=C(Nc1ccc(S(=O)(=O)N2CCCC2)cc1)N1c2ccccc2Sc2ccccc21
-22% | Cc1[nH]nc2c1C(c1ccccn1)N(c1ccc(Br)cc1)C2=O (centres undefined)
-14% | Cc1cc(C)c2c(CN3CCN(C/C=C/c4ccccc4)CC3)cc(=O)oc2c1
-12% | Cc1cccc(-c2noc(CN(C(=O)c3c(-c4ccccc4Cl)noc3C)C(C)C)n2)c1
? | COC(=O)c1nc(N)sc1-c1ccccc1
-1% | CCOC(=O)C(CCc1ccccc1)NC(C)C(=O)N1C(C(=O)O)CC2CCCC21 (centres undefined)
? | Cc1cc(NCCOCCO)n2ncc(-c3ccc(Cl)cc3)c2n1
-2% | O=C(CN1CCCCC1)Nc1ccccc1NC(=O)CN1CCCCC1
0% | CC(C)CN1CCCC2(CCN(S(=O)(=O)c3ccccc3)CC2)C1
0% | CC1(C)N=C(SCC(=O)Nc2ccccc2)C(c2ccc(Cl)cc2)=N1
16µM* | CCOC(=O)c1sc(NC(=O)c2cc(-c3ccccc3C)nc3ccccc23)c(C#N)c1C
-10% | O=C(Nc1nn[nH]n1)c1cccc(Oc2ccccc2)c1
-7% | CCOC(=O)C1CCN(C(=O)CCCCn2c(=O)[nH]c3ccccc3c2=O)CC1
-13% | CC(C)CC(=O)N1CCN(S(=O)(=O)c2ccc(F)cc2)CC1
-5% | COCCNC(=O)CN(C(=O)Cn1nnc2ccccc21)c1ccccc1

(listing goes on)
HPGD inh | Structure
-12% | Cc1cc(/C=C(\C#N)C(=O)NC2CCCCCC2)c(C)n1C
-20% | Nc1c[n+](N2CCOCC2)no1
-10% | CN(C(=O)c1cccc(C#N)c1)c1nnc(C2CCCO2)s1 (centres undefined)
-14% | COc1ccccc1OCC(=O)N1CCN(c2ccccc2OC)CC1
-14% | CC(OC(=O)Cc1ccc(Cl)cc1)C(=O)NCCC1=CCCCC1 (centres undefined)
? | Cn1ncc2c(Nc3ccc(-c4ccccc4)cc3)ncnc21
-8% | O=C(CSc1ncccn1)NCc1ccc(F)cc1
-13% | COc1ccc(C(=O)NCCc2nnc(SCC(=O)Nc3ccc(Br)cc3)n2C)cc1
-8% | CCc1ccccc1OCCCCCNCCO
-6% | O=S(=O)(NCCc1cn2ccccc2n1)c1ccc2c(c1)CCCC2
-1% | COc1ccc(N/N=C(/C)c2cnnc(-c3ccccc3)n2)cc1
-5% | COc1ccc2c(c1)O[C@@H](c1ccc3c(c1)OCO3)[C@H](OC(=O)Nc1ccc(C)c(Br)c1)C2=O
14µM* | C=CCNC(=O)c1onc(CSc2ccc(C(C)C)cc2)c1C(=O)O
-14% | CSc1nsc(SCc2ccc(F)cc2)n1
-11% | CCCCOc1cccc(C(=O)NC(=S)Nc2cccc(NC(=O)c3ccccc3Cl)c2)c1

4 of the compounds above, with bars between the fields:
compound | HPGD inh
Nc1c[n+](N2CCOCC2)no1 | -20%
CN(C(=O)c1cccc(C#N)c1)c1nnc(C2CCCO2)s1 (centres undefined) | -10%
COc1ccccc1OCC(=O)N1CCN(c2ccccc2OC)CC1 | -14%
CC(OC(=O)Cc1ccc(Cl)cc1)C(=O)NCCC1=CCCCC1 (centres undefined) | -14%

Further records.
HPGD inh | Structure
-9% | O=C(N/N=C/C=C/c1ccccc1)C1CC1c1ccccc1 (centres undefined)
-17% | Cc1ccc(C(=O)C2=C(O)C(=O)N(CCN3CCOCC3)C2c2ccccn2)o1 (centres undefined)
-22% | Cc1ccc(CNC(=O)C23CN(Cc4ccccc4)CC2C(c2cccc([N+](=O)[O-])c2)=NO3)cc1 (centres undefined)
? | CCc1cc2c(=O)c(-c3nc4ccccc4n3C)coc2c(CN2CCOCC2)c1O
-5% | CCNC(=O)CCC(=O)Nc1cc(Cl)ccc1C
-15% | Cc1cc(C)nc(-n2ncc3c2CC(c2ccc(C(C)C)cc2)CC3=O)n1 (centres undefined)
-16% | CC1CN(S(=O)(=O)c2ccc(C(=O)Nc3nnc(-c4ccc5c(c4)CCCC5)o3)cc2)CC(C)O1 (centres undefined)
8% | Cc1cc(O)c(C(C)C)cc1NC1=NS(=O)(=O)c2ccccc21
0%&0% | CC[C@@H](C)CN1C(=O)N[C@@H](CCc2ccccc2)C(C(C)=O)=C1C
-11% | CC(C)C(=O)N(Cc1cc2ccccc2[nH]c1=O)C(C)C
-4% | CC12COC3(C(=O)Nc4cccnc4)CC1CCC32C (centres undefined)
-4% | Cn1c(=O)c2c(nc(SCCN3CCOCC3)n2Cc2ccccc2)n(C)c1=O
-2% | CC(C)(CNC(=O)c1cccs1)CNC(=O)c1cccs1
-12% | O=C1COc2ccc(OCc3ccc(F)cc3)cc21
-6% | O=C(COc1cccc2cccnc12)N/N=C1\SCC(=O)N1Cc1ccco1

(listing goes on)
HPGD inh | Structure
-11% | O=C(Nc1cccc(F)c1)N1CC2(CCN(C(=O)c3csnn3)CC2)C1
0% | COCCC(=O)NNS(=O)(=O)c1ccc(Cl)cc1
-24% | Nc1cc(=O)[nH]c(SCC(=O)Nc2ccc(Cl)c(Cl)c2)n1
-6% | CCC(=O)Nc1ccc(C(=O)CSc2nnc(-c3ccccc3F)n2CCc2ccccc2)cc1
? | O=C(Nc1ccc2nn(-c3ccccc3)nc2c1)c1ccc2c(c1)OCCO2
-5% | Cc1ccc2c(c1)nnn2C1CCN(C(=O)C2CCCCC2)CC1
-5% | NC1=NS(=O)(=O)NC1c1cccc(Cl)c1 (centres undefined)
4% | NC(=O)c1sc2cc(C(F)(F)F)cnc2c1-c1cccs1
-8% | O=C(CCCN1C(=O)c2ccccc2C1=O)Nc1c(C(=O)C2CC2)oc2ccccc12
-24% | COc1ccc(C(c2nnnn2Cc2cccs2)N2CCN(c3ccc(F)cc3)CC2)cc1OC (centres undefined)
-5% | O=C(CCCn1c(=O)c2sccc2n(CC(=O)NCc2ccco2)c1=O)NCc1ccco1
-9% | CCN1C(=O)N(S(=O)(=O)c2ccc(C)cc2)[C@@H](c2ccccc2)C(C(=O)OC)=C1C
-14% | Cc1nn(C)cc1NC(=O)CC12CC3CC(CC(C3)C1)C2
-6% | O=C(O)CNC1=NCCCCC1
-16% | O=c1cc(CN2CCC3(CC2)OCCO3)c2c(ccc3ccccc32)o1

6 compounds from above, ordered by their value in HPGD inh, descending:
Compound,HPGD inh
NC(=O)c1sc2cc(C(F)(F)F)cnc2c1-c1cccs1,4%
COCCC(=O)NNS(=O)(=O)c1ccc(Cl)cc1,0%
O=C(CCCn1c(=O)c2sccc2n(CC(=O)NCc2ccco2)c1=O)NCc1ccco1,-5%
O=C(O)CNC1=NCCCCC1,-6%
CCN1C(=O)N(S(=O)(=O)c2ccc(C)cc2)[C@@H](c2ccccc2)C(C(=O)OC)=C1C,-9%
Cc1nn(C)cc1NC(=O)CC12CC3CC(CC(C3)C1)C2,-14%

In the list so far, these have a furan ring, fused or not.
HPGD inh | Structure
-17% | Cc1ccc(C(=O)C2=C(O)C(=O)N(CCN3CCOCC3)C2c2ccccn2)o1 (centres undefined)
-6% | O=C(COc1cccc2cccnc12)N/N=C1\SCC(=O)N1Cc1ccco1
-8% | O=C(CCCN1C(=O)c2ccccc2C1=O)Nc1c(C(=O)C2CC2)oc2ccccc12
-5% | O=C(CCCn1c(=O)c2sccc2n(CC(=O)NCc2ccco2)c1=O)NCc1ccco1

Going on with the list.
HPGD inh | Structure
-10% | CCNc1nc(OC)nc(N2CCC(Cc3ccccc3)CC2)n1
? | N#Cc1cc2c(nc1SCc1nc3ccccc3[nH]1)CCC2
? | CC(=O)Nc1ccc2nc(-c3ccccn3)[nH]c2c1
-18% | COc1cccc(NC(=O)CCNC(=O)Cn2ccc3ccccc3c2=O)c1
-12% | COc1ccc(C2C3=C(Nc4ncnn42)c2ccccc2CC3)cc1OC (centres undefined)
-22% | O=C(CN1CCc2ccccc2C1)c1cccs1
-13% | O=C1C2CCCCN2C(=O)N1CCN1CCN(c2ccc([N+](=O)[O-])cc2)CC1 (centres undefined)
-9% | COc1cc(/C=N/NC(=O)COc2c(C)cc([N+](=O)[O-])cc2C)ccc1OC(=O)c1ccccc1Br
? | N#CC1=C(N)Oc2cc(N)ccc2C1C1CC=CCC1 (centres undefined)
-1% | CCOC(=O)C(NC(C)=O)(Nc1ccc(F)cc1)C(F)(F)F (centres undefined)
-8% | CCCn1c(SCC(=O)Nc2ccc3c(c2)CCC3)n[nH]c1=O
-1% | CCOc1cc(C(=O)NCCOC)ccc1OC
-12% | CCOC(=O)N1CCN(C(=O)C(C)n2nc(C)n3c(cc4sccc43)c2=O)CC1 (centres undefined)
? | CCOc1ccccc1C(=O)Nc1nnc(COC)s1
-21% | CCc1ccccc1NC(=O)COc1cccc2ccc(C)nc12

Printed as active in HPGD inh (from the list above):
HPGD inh | Structure
16µM* | CCOC(=O)c1sc(NC(=O)c2cc(-c3ccccc3C)nc3ccccc23)c(C#N)c1C
14µM* | C=CCNC(=O)c1onc(CSc2ccc(C(C)C)cc2)c1C(=O)O

(listing goes on)
HPGD inh | Structure
-4% | O=C(O)CC1Oc2ccc(Cl)cc2NC1=O (centres undefined)
? | Cc1cccc(-c2nnc(-c3cccc(NC(=O)Cc4cccs4)c3)o2)c1
-6% | CCN(c1ccccc1)S(=O)(=O)c1ccc(C(=O)Oc2ccc(C(C)=O)cc2)cc1
? | COCCn1c(=O)c(CCc2ccccc2)nc2cnc(N3CCNCC3)nc21
-29% | O=C(Nc1cc(F)ccc1F)C1CCCO1 (centres undefined)
? | CN(C)c1ccc(-c2cc(NCc3ccccc3)ncn2)cc1
-15% | CSc1nc2ccc(S(=O)(=O)N(C)C)cc2s1
-21% | Cc1ccc(S/C(=N\S(=O)(=O)c2ccc(Cl)cc2)c2ccccc2)cc1
-6% | Cc1ccc(S(=O)(=O)N(Cc2ccc(Cl)cc2)c2ccccc2C(=O)NCc2cccnc2)cc1
2% | CC1Oc2ccccc2N(CC(=O)N(Cc2ccccc2)Cc2ccccn2)C1=O (centres undefined)
25µM* | c1ccc2c(c1)OCC(c1nnc3sc(-c4cnccn4)nn13)O2 (centres undefined)
-15% | O=C(NC(=S)Nc1ccc2c(c1)C(=O)c1ccccc1C2=O)c1ccc(F)cc1
-17% | O=C(N/N=C/c1ccc(Br)cc1)c1ccc(Br)o1
? | Cc1cccc(-n2c(C)cc(/C=C3\C(=N)N4N=C(CC(C)C)SC4=NC3=O)c2C)c1
-10% | COCCCn1c(SCC(=O)N2CCCCC2C)nnc1-c1ccco1 (centres undefined)

Carrying on:
HPGD inh | Structure
-11% | Cc1cccc(C)c1OCc1nnc(SCC(=O)Nc2ccccc2F)o1
2% | O=C(N1CCOCC1)C(F)(F)C(F)(F)C(F)(F)C(F)(F)C(=O)N1CCOCC1
-7% | CC1(C)C[C@](C)(C(=O)c2ccccc2)C=C1c1ccccc1
-1% | CC(=O)N1CCc2cc(S(=O)(=O)NCCC(=O)Nc3cc(C)cc(C)c3)ccc21
-5% | COC(=O)N(C)CCCC1(C)C(=O)N(C)c2ccc(O)cc21 (centres undefined)
-7% | O=S(=O)(c1cccc2cnccc12)N1CCNCC1
3% | CC(=O)Nc1ccccc1C(=O)C(=O)Nc1cccc(C(=O)NCc2ccccc2)c1
-26% | COc1cccc(C2=CC(c3cccc(OC)c3OC)n3nnnc3N2)c1 (centres undefined)
-3% | O=C(O)c1ccccc1S(=O)(=O)NCC(O)COC1CCCCC1 (centres undefined)
-19% | Cn1c(=O)c2c(-c3ccc(C(C)(C)C)cc3)n(CC3CCCO3)cc2n(C)c1=O (centres undefined)
-10% | CCOC(=O)c1c(NC(=O)CN2C(=O)NC3(CCCCC3C)C2=O)sc(C)c1C (centres undefined)
-24% | Cc1ccccc1OCC(O)Cn1nnc2ccccc21 (centres undefined)
-8% | CCC(C(=O)NCc1ccco1)N(C(=O)CNS(=O)(=O)c1ccc(C)cc1)c1ccccc1OC (centres undefined)
-12% | CCc1c(C)c(C#N)c2nc3ccccc3n2c1N(C)C
-8% | CCCCCSc1nncc(=O)[nH]1

Further entries
HPGD inh | Structure
? | CCN(CC)CCOC(=O)c1ccc(NC(=O)COc2cc(=O)n(CC)c3ccccc23)cc1
? | CC(CCc1ccccc1)NCC(O)c1ccc(O)c(C(N)=O)c1 (centres undefined)
-15% | O=C(NC1CCCC1)C(c1ccccc1)N(C(=O)c1ccno1)c1cccnc1 (centres undefined)
-8% | Cc1cc2nc3c(nc2cc1C)C1(C(=O)O)CCC3(C)C1(C)C (centres undefined)
-15% | NC(=O)C1CCN(CC(=O)Nc2ccccc2Sc2ccc(Cl)cc2)CC1
-3% | Nc1nc(CN2CCOCC2)cs1
-30% | CCc1ccc(C2=NN(S(C)(=O)=O)C(c3cccs3)C2)cc1 (centres undefined)
-22% | COc1ccccc1/C=C/C(=O)NC(=S)Nc1ccc(S(=O)(=O)N(C)c2ccccc2)cc1
-2% | CCC(C)(C)n1nnnc1CN1CCc2ccccc21
-9% | CCc1ccccc1NC(=O)C1CC(c2ccc(F)cc2)=NO1 (centres undefined)
? | CN(C)S(=O)(=O)c1cccc(NC(=S)Nc2ccc(Cl)cc2Cl)c1
1% | NC(=O)C1CCN(C(=O)N2c3ccccc3Sc3ccccc32)CC1
-8% | CCOC(=O)c1c(NC(=O)CSc2nc3c(c(=O)n(C)c(=O)n3C)n2CC)sc(C)c1C
-17% | CCN1CNC(=S)N(c2cc(C)ccc2C)C1
-6% | COc1ccc(/C=C2/SC(=O)N(CCC(=O)Nc3ccc(C)cc3)C2=O)cc1OC

Carrying on:
HPGD inh | Structure
-23% | CCOc1cc(/C=N/NC(=O)CN2CCCCC2)ccc1OCc1cccc(Cl)c1
-11% | COc1cccc(C2CC(c3cccc(C)c3)n3ncnc3N2)c1 (centres undefined)
-11% | O=C(Nc1ccccc1)OCCNC(=O)c1cccc(Cl)c1
-1% | O=C(c1ccco1)N1CCN(C(=O)c2cccc3c2C(=O)N(C2CCCCC2)C3)CC1
